Source: PubChem
NPYLR7 ag: activates Aedes aegypti NPYLR7 receptor. HEK293T NPYLR7/Galpha15, GCaMP6s calcium fluorescence. activation, % at 10 µM. AID 1259423. 0.15% of 270,000 active; in the data active = activation above about 40%;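 note: 0% = vehicle and 100% = reference agonist at the receptor; some compounds past the cut are filed as inactive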
NPYLR7 ag max-min: also measured in NPYLR7 ag; calls as there; activation, %; measured here: Max-Min RFU normalised activation; some inactives read as strong as hits;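 span of the calcium signal over five minutes; 0% = vehicle and 100% = native peptide agonist; compound fluorescence can raise it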
An asterisk follows results filed as active; & = joins results of further samples. This is a subset. The share of hits here may be higher or lower than overall.

The first six entries, to show the layout:
| no. | SMILES | NPYLR7 ag | NPYLR7 ag max-min |
| --- | --- | --- | --- |
| 1 | CC(=O)Nc1ccc(-c2cn(C(C)Cc3cnccn3)nn2)cc1 (centres undefined) | 1&1 | 0&-3 |
| 2 | O=c1cc2c(nn1Cc1ccc(Br)cc1F)CCCC2 | 0 | -1 |
| 3 | CC(c1cccnc1)N(C)Cc1nccn1C(C)C (centres undefined) | -4 | -3 |
| 4 | COc1ccc(CC(=O)N2CCC(N3CCC(C(=O)NC4CC4)CC3)CC2)cc1 | 2 | 0 |
| 5 | Cc1cc(C(=O)CSc2nnnn2C2CC2)c(C)n1Cc1ccco1 | 9 | 5 |
| 6 | Cc1nn(-c2ccc(Cl)cc2Cl)c(C)c1CC(=O)Nc1c[nH]ccc1=O | 3 | 2 |

All compounds of this part, repeating the preview:
| no. | SMILES | NPYLR7 ag | NPYLR7 ag max-min |
| --- | --- | --- | --- |
| 1 | CC(=O)Nc1ccc(-c2cn(C(C)Cc3cnccn3)nn2)cc1 (centres undefined) | 1&1 | 0&-3 |
| 2 | O=c1cc2c(nn1Cc1ccc(Br)cc1F)CCCC2 | 0 | -1 |
| 3 | CC(c1cccnc1)N(C)Cc1nccn1C(C)C (centres undefined) | -4 | -3 |
| 4 | COc1ccc(CC(=O)N2CCC(N3CCC(C(=O)NC4CC4)CC3)CC2)cc1 | 2 | 0 |
| 5 | Cc1cc(C(=O)CSc2nnnn2C2CC2)c(C)n1Cc1ccco1 | 9 | 5 |
| 6 | Cc1nn(-c2ccc(Cl)cc2Cl)c(C)c1CC(=O)Nc1c[nH]ccc1=O | 3 | 2 |
| 7 | CCOc1c(F)cccc1C(=O)N(C)C(C)CSC (centres undefined) | 2 | 4 |
| 8 | Cc1cc(C)cc(N=c2c([N+](=O)[O-])nn(-c3cccc(Cl)c3)n2O)c1 | 17 | 11 |
| 9 | O=C(COc1ccc(Cl)cc1)N1CCc2ccccc2C1c1ccc(F)cc1 (centres undefined) | 22 | 13 |
| 10 | CC1(C(=O)NCC2CCCCC2)CCN1C(=O)CC(c1ccccc1)c1ccccc1 (centres undefined) | 13 | 11 |
| 11 | CNC(=O)[C@H]1C[C@]2(CCCCN(CCO)C2=O)N(C(=O)Nc2ccccc2)[C@H]1c1ccco1 | -1 | 8 |
| 12 | COc1ccc(-c2cc(C(=O)NCCc3ccccc3)c(C)n2-c2ccccc2)cc1 | -5 | -6 |
| 13 | O=C(CSc1ccccn1)Nc1nnc(-c2ccccc2)s1 | -2 | -6 |
| 14 | O=C(c1cccc(C(F)(F)F)c1)C1CCCN(C(=O)CCCn2cncn2)C1 (centres undefined) | 2 | -2 |
| 15 | S=c1[nH]nc(-c2cc(-c3cccs3)nc3ccccc23)o1 | -1 | -2 |
| 16 | Cc1ccc(CNS(=O)(=O)c2c(C)n(C)c(=O)n(C)c2=O)cc1 | 1 | 1 |
| 17 | CC(NC(=O)Cn1ccc2ccccc21)c1nnnn1-c1ccccc1 (centres undefined) | 3 | 11 |
| 18 | Clc1ccc(OCCN2CCc3ccccc3C2)cc1 | -4 | 16 |
| 19 | O=C(CNC(=O)c1cc(S(=O)(=O)N2CCN(c3ccccc3)CC2)ccc1Cl)NC1CC1 | 2 | 9 |
| 20 | CC(C)NC(=O)Cn1nc(-c2cccs2)c2sc(N3CCCC3)nc2c1=O | -5 | -9 |
| 21 | CC(=O)Nc1cc(-c2ccccc2)nn1-c1ccc(C(=O)N[C@H](CO)Cc2ccccc2)cc1 | -6 | -12 |
| 22 | COCC1(C(=O)N2CCCC(Cc3ccc(C(=O)O)cc3)C2)CCC1 (centres undefined) | 6 | 4 |
| 23 | O=C1CCC([N+](=O)[O-])C(c2cccc3ccccc23)N1 (centres undefined) | -14 | -18 |
| 24 | CN(C)S(=O)(=O)CCCOc1ccc2c(c1)OCO2 | 2 | 5 |
| 25 | O=C1c2ccc(S(=O)(=O)Nc3ccc(O)cc3)cc2C(=O)c2c([N+](=O)[O-])ccc(Cl)c21 | -11 | -16 |

Arranged by length of the SMILES (ascending): three of the compounds above
| no. | SMILES | NPYLR7 ag | NPYLR7 ag max-min |
| --- | --- | --- | --- |
| 13 | O=C(CSc1ccccn1)Nc1nnc(-c2ccccc2)s1 | -2 | -6 |
| 23 | O=C1CCC([N+](=O)[O-])C(c2cccc3ccccc23)N1 (centres undefined) | -14 | -18 |
| 12 | COc1ccc(-c2cc(C(=O)NCCc3ccccc3)c(C)n2-c2ccccc2)cc1 | -5 | -6 |

A few values from the entries so far.
NPYLR7 ag, CC(NC(=O)Cn1ccc2ccccc21)c1nnnn1-c1ccccc1 (centres undefined) is entered as 3
NPYLR7 ag max-min, COc1ccc(-c2cc(C(=O)NCCc3ccccc3)c(C)n2-c2ccccc2)cc1 is entered as -6
NPYLR7 ag, CNC(=O)[C@H]1C[C@]2(CCCCN(CCO)C2=O)N(C(=O)Nc2ccccc2)[C@H]1c1ccco1 is entered as -1

(next part)
| no. | SMILES | NPYLR7 ag | NPYLR7 ag max-min |
| --- | --- | --- | --- |
| 26 | COc1ccc2c(c1C)CCC1=C2CCC2(C)C1=CCC2O (centres undefined) | -7 | -9 |
| 27 | COC(=O)C1C(=N)OC2=C(C(=O)CCC2)C1c1ccccc1F (centres undefined) | -6 | -11 |
| 28 | CC1(C(=O)Nc2ccc3c(c2)OCCO3)CCN1Cc1ccc(-n2ccnc2)cc1 (centres undefined) | 8 | 1 |
| 29 | O=c1[nH]c(/C(Cl)=C\c2ccc(N3CCCCC3)cc2)nc2sc3c(c12)CCC3 | 4 | 1 |
| 30 | CCS(=O)(=O)c1ccc(CC(=O)N=c2sc3cc4c(cc3n2C)OCCO4)cc1 | -1 | -6 |
| 31 | CCCCCn1c(=O)c2c(nc3n(C)c(C)c(C)n23)n(C)c1=O | -2 | -2 |
| 32 | COc1ccc(CC(=O)N2CCOC(COc3ccc(F)cc3)C2)c(OC)c1OC (centres undefined) | 26 | 28 |
| 33 | COCCn1cc(NC(=O)c2cc3c(C)cc(F)cc3[nH]2)cn1 | 7 | 4 |
| 34 | CCOc1ccc(-c2ccc(=O)n(CCNC(=O)C3CC3)n2)cc1 | 1 | 0 |
| 35 | O=C(NC(C(=O)N1CCCC1)C1CCN(C(=O)Nc2cccc(Cl)c2)CC1)c1ccc2c(c1)OCO2 (centres undefined) | 5 | 6 |
| 36 | CC(C)(C)CC(=O)NCCc1csc2nc(-c3cccs3)nn12 | 9 | 7 |
| 37 | Cc1ccc(C(=O)N2CCCC(C(=O)c3cccc4ccccc34)C2)s1 (centres undefined) | 2 | -1 |
| 38 | CCOC(=O)c1sc2ncnc(N3CCCN(Cc4ccc(F)cc4)CC3)c2c1C | 5 | 0 |
| 39 | COc1ccc(C(=O)N2CCCC2C(=O)Nc2ccc(-n3ccnc3C)cc2)o1 (centres undefined) | 10 | 5 |
| 40 | Cc1cc(CC(C)NC(=O)c2cccc3c2NCCC3)n[nH]1 (centres undefined) | 9 | 7 |
| 41 | CCCc1ncc(CN2CCC(C(=O)Nc3ccc(Oc4ccccc4F)cc3)CC2)cn1 | 15 | 3 |
| 42 | C=c1c(=C2N=C(c3cccc(C)c3)NO2)sc2ncn(CC(=O)Nc3ccc(Cl)cc3)c(=O)c12 | -9 | -8 |
| 43 | COC(=O)C1C(=N)OC2=C(C(=O)CC(C)(C)C2)C1c1cccc(Br)c1 (centres undefined) | -3 | -9 |
| 44 | O=c1c(N=Nc2c(Cl)cc([N+](=O)[O-])cc2Cl)c(-c2ccccc2)[nH]n1-c1nc(-c2ccccc2)cs1 | -6 | -5 |
| 45 | CC(C)CCNc1nc(Nc2ccc(F)cc2)c2cnn(-c3ccccc3)c2n1 | 2 | 0 |
| 46 | C=CCOc1c(OC)ccc2c1CN(C1CCCC1)C(=O)CCN2C(=O)COC | 2 | 6 |
| 47 | CC1(C(=O)NC2Cc3ccccc3C2)CCN1C(=O)C1CCCCC1 (centres undefined) | 1 | 3 |
| 48 | N#Cc1c(NC(=O)CSc2nnc(NC3CC3)s2)sc2c1CCC2 | -2 | 4 |
| 49 | COC(=O)c1ccc(-n2c(C)cc(C=O)c2C)c(C)c1 | 4 | 5 |
| 50 | COc1ccc2c(c1)C1(SCCN1C(=O)Nc1ccc(Cl)cc1)C(=O)N2Cc1cccc(C(F)(F)F)c1 (centres undefined) | -1 | 3 |

Record cards, as listed above.
Listed for COCCn1cc(NC(=O)c2cc3c(C)cc(F)cc3[nH]2)cn1 = NPYLR7 ag = 7; NPYLR7 ag max-min = 4
Listed for O=c1[nH]c(/C(Cl)=C\c2ccc(N3CCCCC3)cc2)nc2sc3c(c12)CCC3 = NPYLR7 ag = 4; NPYLR7 ag max-min = 1

Continued:
| no. | SMILES | NPYLR7 ag | NPYLR7 ag max-min |
| --- | --- | --- | --- |
| 51 | CCN(Cc1ccccc1)C(=O)CCN1CCC[C@H]1CO | 3 | 2 |
| 52 | Cc1cc(Br)ccc1NC(=O)CNC(=O)CN1C(=O)NC2(CCCC2)C1=O | -5 | -7 |
| 53 | CCC(C)N(Cc1csc(COc2ccccc2C(C)C)n1)C(=O)c1cccs1 (centres undefined) | 3 | 18 |
| 54 | COc1ccc(CC(=O)NCCNc2ccc(Nc3cccnc3)nn2)cc1 | 2 | 2 |
| 55 | CN(Cc1ccc(N2CCCCC2)cc1)S(=O)(=O)c1cn[nH]c1 | 4 | 1 |
| 56 | OC(Cc1ccccc1)c1ccc2c(c1)CN(Cc1cccn1-c1cccnc1)CCO2 (centres undefined) | 3 | -2 |
| 57 | CN1C(=O)CN(C(=O)C2CCCC(C(F)(F)F)C2)c2ccccc21 (centres undefined) | 2 | 1 |
| 58 | CC(=O)c1ccc(OCc2nc3ccccc3c(C(=O)N3CCC4(CC3)CC(=O)c3cc(F)ccc3O4)c2C(=O)N2CCC3(CC2)CC(=O)c2cc(F)ccc2O3)cc1 | -6 | -9 |
| 59 | O=C(Nc1c2c(nn1-c1ccccc1)CS(=O)(=O)C2)c1cccc2ccccc12 | -2 | -5 |
| 60 | CCN(C(=O)C(C)OC(=O)c1ccc(Cl)cc1[N+](=O)[O-])C1CCS(=O)(=O)C1 (centres undefined) | 5 | 4 |
| 61 | COc1cc(NCCNc2cccnc2)ncn1 | 13 | 14 |
| 62 | c1ccc(Oc2cccc(-c3ccc4nnc(-c5ccncc5)n4c3)c2)cc1 | 0 | -8 |
| 63 | O=C1Nc2ccccc2SC1SCCN1C(=O)c2c(F)ccc(F)c2C1=O (centres undefined) | -7 | -11 |
| 64 | CCCCc1ccc(NC(=O)c2cc3c(=O)n(C)c(=O)n(C)c3n2CCCOC)cc1 | 0 | -2 |
| 65 | COc1cc(NC(=O)N2CCc3ccccc3C2c2ccccc2Cl)cc(OC)c1 (centres undefined) | 23 | 11 |
| 66 | O=C(Cc1ccccc1)Nc1sc2c(c1C(=O)Nc1cccc3ccccc13)CCCC2 | 5 | 7 |
| 67 | CCS(=O)(=O)Oc1cc(CN(Cc2ccc(F)cc2)C(=O)Nc2ccccc2OC)ccc1OC | 15 | 0 |
| 68 | CC(C)(C)NC(=O)NC1CCN(c2ccccc2C(=O)NCc2ccccc2)CC1 | -1 | 10 |
| 69 | CCc1ccc(Cl)c(CC)c1NC(=O)c1cc(S(C)(=O)=O)ccc1C | 3 | 2 |
| 70 | c1ccc(CN2CCC(Cc3noc(C4CC4)n3)CC2)cc1 | 3 | 1 |
| 71 | O=C(CSc1nnc(-c2cccs2)n1C1CC1)N1CCOC1=O | 6 | 15 |
| 72 | CC1CCN(C(=O)C(C2CCCC2)N2CCN(C(=O)Nc3cccc(F)c3)CC2)CC1 (centres undefined) | -5 | -5 |
| 73 | Cn1c(N)c(C(=O)CSc2nc(N)cc(N)n2)c(=O)n(C)c1=O | 6 | 5 |
| 74 | Fc1ccc(/C=C/CN2CCC(OCc3cccnc3)CC2)cc1 | 7 | -2 |
| 75 | NC(=O)N(CCC(=O)O)c1ccc(O)cc1 | 1 | 5 |

Other structures.
| no. | SMILES | NPYLR7 ag | NPYLR7 ag max-min |
| --- | --- | --- | --- |
| 76 | CC(C)(C)c1cc(-n2ccnc2)n2ncc(-c3ccccc3Cl)c2n1 | -2 | 6 |
| 77 | Cc1ncc2c(c1CNS(=O)(=O)N(C)C)CCN(C(=O)c1cc3ccccc3n1C)C2 | 19 | 9 |
| 78 | CNC(=S)NN=Cc1cc(Br)cc(Br)c1O | 14 | 12 |
| 79 | CCc1cnc(NC(=O)N2CCN(c3nc(C)ns3)CC2)s1 | 0 | -1 |
| 80 | CCN1C(=O)NC(c2ccc(C)cc2C)C2=C1CN(C(Cc1ccccc1)C(=O)NC1CCCCC1)C2=O (centres undefined) | -1 | 2 |
| 81 | C=C1C(C)(C)[C@H]2CC[C@]1(C(=O)N1CCc3nc(C)n(C)c(=O)c3CC1)C2 | 1 | -1 |
| 82 | Cc1ccc(C(C)NC(=O)CCOc2cccc(Cl)c2)o1 (centres undefined) | -5 | -6 |
| 83 | CNS(=O)(=O)Cc1ccc(CNC(=O)NCc2ccccc2S(=O)(=O)N2CCCCC2)cc1 | 3 | 2 |
| 84 | COc1cccc(N2C(=O)CSC2c2cccc(NC(=O)COc3ccccc3)c2)c1 (centres undefined) | -1 | 4 |
| 85 | O=C(CC(O)(c1ccco1)C(F)(F)F)Nc1cccc(S(=O)(=O)N2CCCCC2)c1 (centres undefined) | 3 | 5 |
| 86 | O=C(Nc1ccnn1C1CCN(c2cnccn2)CC1)c1ccccc1Cl | 2 | -2 |
| 87 | CCCC1=NN(C(C)=O)C(C(=O)N(C)CCc2ccccc2)O1 (centres undefined) | 3 | -3 |
| 88 | CCOC(=O)Cn1c(=NC(=O)c2ccccc2[N+](=O)[O-])sc2cc(C(C)C)ccc21 | 4 | 1 |
| 89 | COC(=O)[C@@H]1C[C@H](NC(=O)c2cccc3[nH]c(C)nc23)CN1C | 0 | 0 |
| 90 | CC(C)N(CCNC(=O)c1ccc(Cl)c(NC(=O)c2cccs2)c1)C(C)C | 10 | 1 |
| 91 | COCCn1c(C(=O)NC2CCCCCC2)cc2c(=O)n(C)c(=O)n(C)c21 | 1 | -1 |
